# StopGo reporter = FMDV 2A StopGo reporter, luciferase signal; human cells with a luciferase reporter of 2A StopGo recoding; control for the full effect not named in the record; Potency, µM (top dose mostly 57.9 µM), for the others: at the top dose signal change, negative = less light; 410,000 tested, 1.2% active; AID 1159524; active = well fitted falling curve with a large enough effect; inconclusive = small, poorly fitted or top-dose-only effect; inactive = no such curve, though single readings can be large or run the other way; tested in HEK293T cells; note: % is set by controls: 0 for no effect and ±100 for the full control effect; nearly all actives have a fitted effect of over 45% in size; luciferase light after 4 h
# LASV entry inh = inhibitors of Lassa virus binding or cell entry | Potency, µM (top dose mostly 37.9 µM), without a hit: top-dose activity change, negative = inhibition, hits mostly inhibitors | 300,000 tested, 1.2% active | Lassa virus pseudotype entry inhibition, cell reporter; control for the full effect not named in the record; active means well fitted inhibition curve with a large enough effect; inconclusive means small, poorly fitted or top-dose-only effect, or effect the other way; inactive means flat fitted curve, though single readings scatter; tested in HEK293 cells; note: % is set by controls: 0 for no effect and ±100 for the full control effect; nearly all actives have a fitted effect of over 50% in size; luciferase read-out
# SARS PLpro yeast = inhibitors of SARS-CoV papain-like protease in yeast; S. cerevisiae expressing SARS-CoV PLpro, growth rescue; control for the full effect not named in the record; Potency, µM (top dose mostly 32.9 µM), for inactives: at the top dose activity, positive = growth rescue; 330,000 tested, 0.19% active; AID 485353; note: 0% is about no effect; nearly all actives have a fitted effect of over 55% in size; growth read by luminescence after 48 h
# MARV entry inh = Marburg virus entry inhibition. Marburg virus pseudotyped entry inhibition, cell reporter; control for the full effect not named in the record; about a third of the inactives were read at about 46 µM. Potency, µM (doses to about 37.8 µM), without a hit: at the highest dose activity change, negative = inhibition, usual class: inhibitors. 300,000 tested, 1.8% active. AID 540276; active = well fitted inhibition curve with a large enough effect; inconclusive = small, poorly fitted or top-dose-only effect, or effect the other way; inactive = flat fitted curve, though single readings scatter; tested in HEK293 cells; about a fifth of its hits are not listed in these tables; note: % is set by controls: 0 for no effect and ±100 for the full control effect; luciferase read-out
# NS1 inh = inhibitors of influenza NS1 protein function; S. cerevisiae slowed by influenza A NS1, growth recovery by OD600; Potency, µM (titrated, usually from 46.1 µM), for the others: at the highest dose activity, positive = more growth; 270,000 tested, 0.4% active; AID 2326; note: actives are rising curves; nearly all actives have a fitted effect of over 50% in size
#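 Read-out: OD600 growth recovery of NS1-expressing budding yeast. Cells grown overnight at 30C in -URA glucose medium, washed, resuspended and diluted 1:100 in 2% galactose assay medium, pH 6.0. Same strain lacking NS1 served as positive control.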
# RE007 growth inh = less growth of the S. pombe RE007 Vpr strain. S. pombe RE007 Vpr strain, BacTiter-Glo ATP luminescence, 24 h; control for the full effect not named in the record. Potency, µM (doses to about 92.2 µM), inactives show at the highest dose activity change, negative = less growth. 360,000 tested, 0.21% active; active = well fitted falling curve with a large enough effect; inconclusive = small, poorly fitted or top-dose-only effect; inactive = no such curve, though single readings can be large or run the other way;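 note: % is set by controls: 0 for no effect and ±100 for the full control effect; nearly all actives have a fitted effect of over 50% in size; the assay follows cell death caused by Vpr and the record does not say whether a fall means rescue or toxicity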
#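 Fission yeast strain RE007, carrying one chromosomally integrated HIV-1 vpr copy, was seeded at OD 0.01 in PMG+AL medium with 23 nL pinned compound. After 24 h at 30 °C and 99% humidity, viability was read by BacTiter-Glo luminescence.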
# The depositor's hits bear a star; ? = inconclusive; . = no result given; & = joins results of further samples; [ ] = remark or other dose. Unless noted, calls come from the whole dose curve; as a rule, active means well fitted rising curve with a large enough effect; inconclusive means small, poorly fitted or top-dose-only effect; inactive means no such curve, though single readings can be large or run the other way. Potency is the fitted concentration of half-maximal effect. Some of the compounds tested, so the mix of outcomes need not match the whole.
# Order of results: StopGo reporter, LASV entry inh, SARS PLpro yeast, MARV entry inh, NS1 inh, RE007 growth inh
1. COCc1cc2cc3c(cc2c2c(C(=O)OC)c(C(=O)OC)c(C(=O)OC(C)(C)C)n12)OCO3
    ., ?, ., -27%[14.2 µM], ., .
2. CCN(CC)CCCN=C1NC(c2cccc(C(F)(F)F)c2)C(C(=O)OC)=C(C)N1CC (configuration not stated)
    ., ?, ., ?, ., .
3. NC(C(=O)O)C(O)c1ccc(O)c(O)c1 (configuration not stated)
    ., ?, ., 1.3µM*, ., .
4. CCOC(=O)CCN1C(=O)[C@@H]2[C@H]3[C@H](O)[C@H](O)CC(=NNC(=O)OCc4ccc(OC)cc4)[C@@H]3CC[C@H]2C1=O
    ., ?, ., 12%[14.2 µM], ., .
5. Cc1cccc(C)c1NC(=O)CN1CCCC1=O
    ., -9%, ., -9%, ., .
6. O=C(Oc1ccccc1)[C@H]1O[C@H]1c1ccccc1
    ., ?, ., ?, ., .
7. C=CCN1C(=O)[C@]2(O[C@H](C)CC3=CCCC32)c2c(Br)cccc21 (some centres not stated)
    ., ?, ., 2%[14.2 µM], ., .
8. COc1cccc([C@@H]2Oc3ccc(OC)cc3C(=O)[C@@H]2O)c1
    ., ?, ., ?, ., .
9. O=C1N(Cc2ccc(F)cc2)c2ccccc2[C@@]12O[C@H](COc1ccccc1)CC1CCCC12 (some centres not stated)
    ., ?, ., ?, ., .
10. C[C@@H]1CC[C@H]2C(=O)O[C@H](COc3ccc(C(C)(C)C)cc3)CN2[C@@H]1c1ccc(Br)cc1
    ., -27%[14.3 µM], ., ?, ., .
11. Cc1ccccc1Nc1oc(-c2ccccc2)nc1-c1ccc(C(F)(F)F)cc1
    ., ?, ., 17%[14.2 µM], ., .
12. C[C@@H]1C=CCCO[C@]12C(=O)N(Cc1ccc(F)cc1)c1ccccc12
    ., ?, ., 0%[14.2 µM], ., .
13. C[C@@H]1C=CCC(=O)N[C@@H](c2ccccc2)[C@H](C)C=CCC(=O)N[C@@H]1c1ccccc1
    ., ?, ., 12%[14.2 µM], ., .
14. COc1cccc([C@@H]2Oc3ccc(OC)cc3C(=O)[C@@H]2OC(=O)N[C@H]2CCCc3ccccc32)c1
    ., ?, ., ?, ., .
15. O[C@@H]1CO[C@@H](C=Cc2ccccc2)[C@H]1OCc1cccc(Br)c1
    ., ?, ., -5%[14.2 µM], ., .
16. CCOC(=O)C1=C(C)NC(C)=C(C(=O)OCC)C1c1c(F)c(F)c(F)c(F)c1F
    ., 16µM*, ., ?, ., .
17. COc1ccc(-c2nc(-c3ccccc3)oc2NC(C)c2ccccc2)cc1 (configuration not stated)
    ., ?, ., -6%[14.2 µM], ., .
18. N[C@H](C(=O)O)[C@H](Cc1ccccc1)C(=O)O
    ., -1%, ., 14%, ., .
19. COC1=C[C@H](C(=O)N2CCCC2)[C@H](C)[C@@H](c2ccccc2)CC1=O
    ., ?, ., 2%[14.2 µM], ., .
20. COc1ccc(COC(=O)NN=C2C[C@@H](O)[C@@H](O)[C@@H]3[C@H]4C(=O)N(C[C@@H]5CCCO5)C(=O)[C@@H]4CC[C@@H]23)cc1
    ., ?, ., ?, ., .
21. C=CC(C)=C[C@@]1(C)SC(=O)C(C)=C1O
    ., -18%, ., 2%, ., .
22. O=C(NC(CC1=CCCCC1)c1ccccc1)C(F)(F)F (configuration not stated)
    ., ?, ., 59%[14.2 µM], ., .
23. C[C@@H]1CC2CCC[C@@H]2[C@]2(O1)C(=O)Nc1cccc(Br)c12 (some centres not stated)
    ., ?, ., ?, ., .
24. CC=CC1=CC2=CC(=O)C(C)(OC(=O)c3c(C)cc(O)cc3O)C(=O)C2=CO1 (configuration not stated)
    ., ?, ., ?, ., .
25. CC(CCN1CCCc2nc(C)c(C)cc21)=NO[C@H](C)c1cn([C@@H]2COC[C@@H]2O)nn1
    ., ?, ., 7%[14.2 µM], ., .
26. Cc1ccccc1Nc1oc(-c2ccccc2)nc1C(C)(C)C
    ., ?, ., -15%[14.2 µM], ., .
27. C[C@H]1Cc2c(-c3ccccc3)nc3c(c2CO1)CN(S(=O)(=O)c1ccc2c(c1)OCCN2C)CC3
    ., ?, ., -12%&-12%[14.2 µM], ., .
28. CCCCCCCC1=Cc2ccccc2C(CC(C)=O)N1C(=O)OC (configuration not stated)
    ., -41%[14.3 µM], ., 13%&13%&4%&13%[14.2 µM], ., .
29. COC(=O)C1=NOC2(C=C(Br)C(OC)=C(Br)C2=O)C1 (configuration not stated)
    ., ?, ., -42%&-42%[14.2 µM], ., .
30. COc1ccc(-c2ccc3c(n2)CCCN3CC(O)CN2CCCc3nc(C)c(C)cc32)cc1 (configuration not stated)
    ., ?, ., ?, ., .
31. COc1cc(CCN2C(=O)NC(c3cccc(C(F)(F)F)c3)C(C(C)=O)=C2C)cc(OC)c1OC (configuration not stated)
    ., 1%[14.3 µM], ., 5%[14.2 µM], ., .
32. O=C(CSc1nc2ccccc2o1)N/N=C/c1ccccc1C(=O)O
    ., ., -5%, ., 6%, -1%
33. C=C(C=O)CC1CC(O)[C@]2(C)OC3CC4OC5C[C@]6(C)O[C@]7(C)CCC8OC9C[C@]%10(C)OC%11C(C)=CC(=O)OC%11CC%10OC9C[C@@H](C)C8OC7CC6O[C@]5(C)CC5OC5C4OC3CC2O1 (some centres not stated)
    ., ., 0%, ., -2%, .
34. CC1=CC(=O)OC2CC3OC4C[C@@H](C)C5OC6CC7O[C@]8(C)C/C=C\C9OC%10CC%11OC(CC(C)CO)CC(O)[C@]%11(C)OC%10CC9OC8C[C@]7(C)O[C@]6(C)CCC5OC4C[C@]3(C)OC12 (some centres not stated)
    ., ., 0%, ., -3%, 11%
35. CC(C)(O)C#Cc1ccc(CN2CCc3nnc(CCNC(=O)c4ccco4)n3CC2)cc1
    10%, ., ., ., ., .
36. COc1ccc2cc(CNC3CCS(=O)(=O)C3)c(-c3ccc(OC)c(OC)c3)nc2c1 (configuration not stated)
    -15%, ., ., ., ., .
37. CC(C)C[C@@H]1NC(=O)[C@H](CCCN)NC(=O)[C@H](C(C)C)NC(=O)[C@@H]2CCCN2C(=O)[C@@H](Cc2ccccc2)NC(=O)[C@H](CC(C)C)NC(=O)[C@H](CCCN)NC(=O)[C@H](C(C)C)NC(=O)[C@@H]2CCCN2C(=O)[C@@H](Cc2ccccc2)NC1=O
    6.3µM*, ., ., ., ., .
38. COc1ccccc1C1CN(Cc2cccn2-c2ncccn2)Cc2ccccc2O1 (configuration not stated)
    -19%, ., ., ., ., .
39. Cc1ccc2nc(CNC(=O)c3cc(NC(=O)c4ccccc4)cc4ncn(C5CCCC5)c34)cn2c1
    -10%, ., ., ., ., .
40. Cc1cnc(-n2ncc(C(=O)N(C)C3CCOC3)c2-c2cccs2)nc1-c1ccc(F)cc1 (configuration not stated)
    36%[activator], ., ., ., ., .

# 5 records drawn at random from the list so far, as already listed:
# Order of results: StopGo reporter, LASV entry inh, SARS PLpro yeast, MARV entry inh, NS1 inh, RE007 growth inh
36. COc1ccc2cc(CNC3CCS(=O)(=O)C3)c(-c3ccc(OC)c(OC)c3)nc2c1 (configuration not stated)
    -15%, ., ., ., ., .
8. COc1cccc([C@@H]2Oc3ccc(OC)cc3C(=O)[C@@H]2O)c1
    ., ?, ., ?, ., .
38. COc1ccccc1C1CN(Cc2cccn2-c2ncccn2)Cc2ccccc2O1 (configuration not stated)
    -19%, ., ., ., ., .
25. CC(CCN1CCCc2nc(C)c(C)cc21)=NO[C@H](C)c1cn([C@@H]2COC[C@@H]2O)nn1
    ., ?, ., 7%[14.2 µM], ., .
29. COC(=O)C1=NOC2(C=C(Br)C(OC)=C(Br)C2=O)C1 (configuration not stated)
    ., ?, ., -42%&-42%[14.2 µM], ., .

# Following part
# Order of results: StopGo reporter, LASV entry inh, SARS PLpro yeast, MARV entry inh, NS1 inh, RE007 growth inh
41. CCc1c2c(nc3ccc(O)cc13)-c1cc3c(c(=O)n1C2)COC(=O)[C@]3(O)CC
    -12%, ., ., ., ., .
42. CO/N=C(\C(=O)N[C@@H]1C(=O)N2C(C(=O)O)=C(CSc3nc(=O)c(O)nn3C)CS[C@H]12)c1csc(N)n1
    -18%, ., ., ., ., .
43. OC1(c2cccnc2)CCN(Cc2ccc3c(c2)CN(Cc2cc(F)ccc2F)CCO3)CC1
    -18%, ., ., ., ., .
44. CCc1cc(C(=O)NCC2Cc3cc(-c4ccccc4C(C)=O)ccc3O2)no1 (configuration not stated)
    -28%, ., ., ., ., .
45. COC(=O)c1ccccc1C(=O)N1CCc2c(cnc(C)c2CNC(=O)c2ccccc2F)C1
    -1%, ., ., ., ., .
46. COc1ccc(CN2CCC3(CCC(CNC(=O)c4ccco4)O3)CC2)cc1OC (configuration not stated)
    4%, ., ., ., ., .
47. COC(=O)c1cn([C@@H]2C[C@@H](C(=O)Nc3cccc(SC)c3)N(C3CCCC3)C2)nn1
    -13%, ., ., ., ., .
48. Cc1cc(-c2ccnc(-n3ncc(C(=O)NCC(C)(C)N4CCOCC4)c3C)n2)c(C)s1
    12%, ., ., ., ., .
49. O=C(NC(c1cccnc1)C(F)(F)F)c1cnn(-c2nccc(-c3cccs3)n2)c1C1CC1 (configuration not stated)
    ?, ., ., ., ., .
50. Oc1cn2c(n1)Nc1ccc(Cl)c(Cl)c1C2
    -3%, ., ., ., ., .
51. CC(C)Oc1ccc(C(=O)NCC2Cc3cc(Cl)cc(-c4ncccn4)c3O2)cc1 (configuration not stated)
    -2%, ., ., ., ., .
52. O=C(NCC1Cc2cccc(-c3cccnc3)c2O1)c1ccc2cc[nH]c2c1 (configuration not stated)
    1%, ., ., ., ., .
53. CN(C)CC(C)(O)c1ccc2c(c1)CN(C(=O)c1ccc(-n3cccn3)cc1)CCO2 (configuration not stated)
    -1%, ., ., ., ., .
54. Cc1ccc(C(=O)Nc2cnn(-c3ccc(C(=O)NCc4nc(-c5ccccc5)n[nH]4)cc3)c2)c(C)c1
    -18%, ., ., ., ., .
55. c1ccc(CCc2nnc3n2CCN(Cc2ccc4ccccc4n2)CC3)cc1
    28%, ., ., ., ., .
56. Cc1ccc(C(=O)N(Cc2cc3cc4c(cc3nc2N2CCOCC2)CCC4)CC2CCCO2)s1 (configuration not stated)
    14%, ., ., ., ., .
57. Cc1oc(-c2cccc(NC(=O)c3ccccn3)c2)nc1CNC(=O)c1ccc(C(F)(F)F)cc1
    41%[activator], ., ., ., ., .
58. CCC1CN(CCNC(=O)c2cc(C(C)C)nn2C)Cc2cc(OC)ccc2O1 (configuration not stated)
    -29%, ., ., ., ., .
59. Cc1nc(NCc2c(C)nn(C)c2Cl)sc1-c1ccn(CC2COc3ccccc3O2)n1 (configuration not stated)
    ?, ., ., ., ., .
60. Cc1cccc(Nc2nc(NCCO)nc(N3CCCC3)n2)c1
    -22%, ., ., ., ., .

# Three compounds from above, ordered by heavy-atom count, high to low:
# Order of results: StopGo reporter, LASV entry inh, SARS PLpro yeast, MARV entry inh, NS1 inh, RE007 growth inh
54. Cc1ccc(C(=O)Nc2cnn(-c3ccc(C(=O)NCc4nc(-c5ccccc5)n[nH]4)cc3)c2)c(C)c1
    -18%, ., ., ., ., .
51. CC(C)Oc1ccc(C(=O)NCC2Cc3cc(Cl)cc(-c4ncccn4)c3O2)cc1 (configuration not stated)
    -2%, ., ., ., ., .
55. c1ccc(CCc2nnc3n2CCN(Cc2ccc4ccccc4n2)CC3)cc1
    28%, ., ., ., ., .
